Myc binder – binders of human c-Myc, primary screen, biochemical, small molecule microarray, anti-His fluorescence. His-c-Myc binding. calls only. actives 1.5% (n = 17,000);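 active means spot fluorescence over background with P-value below 7% in all four replicate spots, showing protein binding; compounds were printed on slides so no solution concentration is given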;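 further: score is binary with 100 for all four spots passing and 0 otherwise; about 2 pmol printed per array spot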
Target sequence (P01106 whole entry, looked up): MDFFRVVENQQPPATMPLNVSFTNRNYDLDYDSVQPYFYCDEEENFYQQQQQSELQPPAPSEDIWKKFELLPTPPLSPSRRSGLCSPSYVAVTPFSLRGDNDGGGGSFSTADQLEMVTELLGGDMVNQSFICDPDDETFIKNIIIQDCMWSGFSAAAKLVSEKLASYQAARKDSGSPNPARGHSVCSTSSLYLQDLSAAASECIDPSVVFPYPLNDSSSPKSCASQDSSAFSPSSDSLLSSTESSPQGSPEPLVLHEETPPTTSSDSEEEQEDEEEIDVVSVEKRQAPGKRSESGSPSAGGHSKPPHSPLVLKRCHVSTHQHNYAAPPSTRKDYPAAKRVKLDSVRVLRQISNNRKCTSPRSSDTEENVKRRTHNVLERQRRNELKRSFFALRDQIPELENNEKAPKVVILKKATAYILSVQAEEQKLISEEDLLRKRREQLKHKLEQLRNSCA
ID4 SMM – binders of human ID4 protein, primary screen, biochemical, small molecule microarray, single point. DNA-binding protein inhibitor ID-4 (Homo sapiens), P47928. Flag-ID4 binding, fluorescence F/B. calls only. actives 1.2% (n = 31,000). AID 624137, 2012;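 active means spot signal over background at p below 0.07 in all four prints; compounds were printed on slides so no solution concentration is given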;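 further: a binder raises fluorescence above local background on the spot; about 2 pmol printed per array spot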
Target sequence (P47928 whole entry, looked up): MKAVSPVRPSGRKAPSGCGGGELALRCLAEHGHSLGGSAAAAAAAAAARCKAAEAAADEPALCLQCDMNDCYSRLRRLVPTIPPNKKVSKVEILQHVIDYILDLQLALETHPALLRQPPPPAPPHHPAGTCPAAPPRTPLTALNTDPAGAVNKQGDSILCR
STAT3 binder – STAT3 binders, primary screen, biochemical, small molecule microarray, single point, set 2 | calls only | His-STAT3 binding, anti-His fluorescence | Signal transducer and activator of transcription 3 (Homo sapiens), P40763 | AID 624138, 2012 | actives 0.2% (n = 17,000);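 active means compounds whose four printed spots each show fluorescence over background unusually high for their array block, chance value under 7%; compounds were printed on slides so no solution concentration is given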;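 further: about 2 pmol printed per array spot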
p53 mut binder – binders of human mutant p53, primary screen, biochemical, small molecule microarray, anti-GST fluorescence. actives 0.4% (n = 17,000). small molecule microarray binding. calls only;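 active means compounds whose four printed spots each glow above background more than chance allows, each with a p-value under 7%; compounds were printed on slides so no solution concentration is given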;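 further: about 2 pmol printed per array spot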
Calls only; i = inactive; . = not tested or not shown; + = active, no number. Not all compounds are listed; the hit share may differ from the screen's.

SMILES	p53 mut binder	ID4 SMM	Myc binder	STAT3 binder
C[C@@H]1CCCCO[C@@H](CN(C)C(=O)C2CCCCC2)[C@H](C)CN([C@H](C)CO)C(=O)c2cc(NS(=O)(=O)c3ccccc3)ccc2O1	i	i	i	i
O=C(CSCc1ccccc1Cl)Nc1c[nH]c(=O)[nH]c1=O	i	i	i	i
Cc1noc(C)c1NC(=O)Nc1ccc2c(c1)C(=O)N([C@@H](C)CO)C[C@@H](C)[C@@H](CN(C)C(=O)Nc1c(C)noc1C)O2	i	i	i	i
C[C@@H]1O[C@@H](O[C@H]2[C@@H]3C=CO[C@@H](O[C@@H]4O[C@H](CO)[C@@H](O)[C@H](O)[C@H]4O)[C@@H]3[C@@]3(CO)O[C@@H]23)[C@H](OC(=O)/C=C/c2ccccc2)[C@H](OC(=O)/C=C/c2ccccc2)[C@H]1O	i	i	i	i
C[C@H](CO)N1C[C@H](C)[C@@H](CN(C)Cc2ccncc2)Oc2ccc(NC(=O)CCN3CCOCC3)cc2CC1=O	i	i	i	i
Cc1cccc(C)c1NC(=O)CSc1nc(-c2ccccc2)c(-c2ccccc2)[nH]1	i	i	i	i
N#CCCN(CCC#N)C(=O)c1ccccc1Oc1ccccc1	i	i	i	i
C[C@H](CO)N1C[C@H](C)[C@H](CN(C)C)OCCCC[C@H](C)Oc2ccc(NC(=O)Nc3cccc4ccccc34)cc2C1=O	i	i	i	i
C[C@@H]1CN([C@H](C)CO)C(=O)Cc2cc(NS(=O)(=O)c3cccs3)ccc2O[C@@H]1CN(C)S(=O)(=O)c1ccc(Cl)cc1	i	i	i	i
C[C@@H]1CN([C@H](C)CO)C(=O)Cc2cc(NC(=O)CCC(F)(F)F)ccc2O[C@@H]1CN(C)C(=O)Nc1cccc2ccccc12	i	i	i	i

SMILES	p53 mut binder	ID4 SMM	Myc binder	STAT3 binder
C[C@@H]1CN([C@@H](C)CO)C(=O)c2cccc(NC(=O)C3CC3)c2O[C@H]1CN(C)Cc1ccccc1	i	i	i	i
COC(=O)c1c(-c2ccccc2)csc1NC(=O)c1cc2cccc(OC)c2oc1=O	i	i	i	i
CC(=O)O[C@@H]1C[C@@]23C[C@@]24CC[C@H](O[C@@H]2OC[C@@H](O)[C@H](O)[C@H]2O)C(C)(C)[C@@H]4CC[C@H]3[C@]2(C)C[C@@H]3O[C@]4(C[C@@H](C)[C@@H]3[C@@]12C)O[C@H](O)[C@@]1(C)O[C@@H]41	i	.	i	i
Cc1noc(C)c1NC(=O)N(C)C[C@H]1OCc2cn(nn2)CCCC(=O)N([C@H](C)CO)C[C@H]1C	i	i	i	i
COC(=O)c1ccc(OCC(=O)Nc2ccc(C(C)=O)cc2)cc1	i	i	i	i
Cc1noc(C)c1NC(=O)Nc1cccc2c1O[C@H](CN(C)Cc1ccc(C(=O)O)cc1)[C@H](C)CN([C@@H](C)CO)C2=O	i	i	i	i
C[C@@H]1CN([C@@H](C)CO)C(=O)c2cccc(NC(=O)c3ccncc3)c2O[C@H]1CN(C)C	i	i	i	i
O=C(CSc1nnnn1-c1ccccc1F)Nc1ccc(Br)cc1	i	i	i	i
O=C(NCc1ccccc1)C1=C[C@@H](c2ccc(Br)cc2)C[C@@H](OCc2ccc(CO)cc2)O1	i	i	i	i
CNC[C@H]1Oc2ccc(NS(=O)(=O)c3ccccc3)cc2C(=O)N([C@H](C)CO)C[C@H]1C	i	i	i	i

SMILES	p53 mut binder	ID4 SMM	Myc binder	STAT3 binder
COc1ccc(OC)c(-n2c(CNC3CCN(Cc4ccccc4)CC3)nc3ccccc3c2=O)c1	i	i	i	i
O=C(NCc1nc2ccccc2[nH]1)C1=C[C@H](c2ccc(Br)cc2)C[C@H](OCc2ccc(CO)cc2)O1	i	.	i	i
C[C@@H]1CN([C@@H](C)CO)C(=O)c2cccc(NC(=O)Nc3cccc4ccccc34)c2O[C@H]1CN(C)C(=O)NC1CCCCC1	i	i	i	i
COc1ccc(CN(C)C[C@H]2Oc3ccc(NC(=O)C4CC4)cc3CC(=O)N([C@H](C)CO)C[C@H]2C)cc1	i	i	i	i
COc1ccc(CCNC(=O)C(=O)Nc2ccccc2C)cc1OC	i	i	i	i
CC(=O)OC[C@H]1O[C@@H](Oc2cc(OC(C)=O)c3c(=O)cc(-c4ccc(OC(C)=O)cc4)oc3c2)[C@H](OC(C)=O)[C@@H](OC(C)=O)[C@@H]1OC(C)=O	i	.	i	i
O=C1c2cc(O)cc(O)c2C(=O)c2c1cc(O)c(C(CO)CCO)c2O (configuration not stated)	i	i	i	i
C[C@@H]1CCCCO[C@@H](CN(C)C(=O)NC2CCCCC2)[C@H](C)CN([C@H](C)CO)C(=O)c2cc(NS(=O)(=O)c3ccc(Cl)cc3)ccc2O1	i	.	i	i
C[C@@H]1CN([C@@H](C)CO)C(=O)c2cc(NC(=O)Nc3ccc(C(F)(F)F)cc3)ccc2O[C@@H]1CN(C)CC1CCCCC1	i	.	i	i
COc1ccc(S(=O)(=O)Nc2ccc3c(c2)CC(=O)N([C@@H](C)CO)C[C@H](C)[C@@H](CN(C)S(=O)(=O)c2ccc(OC)cc2)O3)cc1	i	i	i	i

SMILES	p53 mut binder	ID4 SMM	Myc binder	STAT3 binder
COCCOC(=O)N1C(=O)[C@@]2(c3cc(C#CCCO)ccc31)[C@H](C(N)=O)[C@H]1C(=O)O[C@H](c3ccccc3)[C@H](c3ccccc3)N1[C@@H]2c1ccccc1OCCO	i	.	i	i
COc1ccc(CN(C)C[C@@H]2Oc3ccc(NC(=O)Nc4ccc(F)cc4)cc3C(=O)N([C@H](C)CO)C[C@@H]2C)cc1	i	i	i	i
Cc1ccc(-c2nc3ccccc3[nH]2)cc1NC(=O)C(C)Oc1ccc(Cl)cc1Cl (configuration not stated)	i	i	i	i
C[C@@H]1CN([C@@H](C)CO)C(=O)c2cccc(NC(=O)C3CCOCC3)c2O[C@H]1CN(C)Cc1ccc(Cl)c(Cl)c1	i	i	+	i
COc1ccc(CN(C)C[C@@H]2OCCCC[C@@H](C)Oc3ccc(NC(=O)Nc4c(C)noc4C)cc3C(=O)N([C@@H](C)CO)C[C@@H]2C)cc1	i	i	i	i
C=CCNC(=O)[C@@H]1[C@H]2C(=O)O[C@H](c3ccccc3)[C@H](c3ccccc3)N2[C@H](c2ccccc2OCCO)[C@@]12C(=O)Nc1ccc(C#CC3(O)CCCCCC3)cc12	i	i	i	i
Cc1noc(C)c1S(=O)(=O)N(C)C[C@@H]1Oc2ccc(NS(=O)(=O)c3ccc(Cl)cc3)cc2CC(=O)N([C@H](C)CO)C[C@H]1C	i	.	i	i
CCOC(=O)C1CCCN(S(=O)(=O)c2cccc3cccnc23)C1 (configuration not stated)	i	i	i	i
C[C@H](CO)N1C[C@H](C)[C@H](CN(C)C(=O)Nc2cccc3ccccc23)Oc2c(NC(=O)c3ccncc3)cccc2C1=O	i	i	i	i
C[C@H]1[C@H](C)CC[C@]2(C(=O)O)CC[C@]3(C)C4=CCC5C(C)(C)[C@@H](O[C@@H]6O[C@H](C(=O)O)[C@@H](O)[C@H](O)[C@H]6O)CC[C@]5(C)C4CC[C@@]3(C)[C@H]12 (some centres not stated)	i	i	i	i

SMILES	p53 mut binder	ID4 SMM	Myc binder	STAT3 binder
Cc1onc(-c2ccccc2Cl)c1C(=O)Nc1ccc(S(=O)(=O)Nc2nccs2)cc1	i	i	i	i
C[C@H]1CCCCO[C@H](CN(C)C(=O)CCCN(C)C)[C@@H](C)CN([C@@H](C)CO)C(=O)c2cc(NC(=O)Cc3ccccc3)ccc2O1	i	i	i	i
COc1ccc(CN2C(=O)C(O)(CC(=O)c3cccnc3)c3ccccc32)cc1OC (configuration not stated)	i	i	i	i
C[C@@H]1CCCCO[C@H](CN(C)Cc2ccncc2)[C@H](C)CN([C@@H](C)CO)C(=O)c2cc(NC(=O)Nc3cccc4ccccc34)ccc2O1	i	.	i	i
CNC[C@H]1Oc2ccc(NC(=O)Nc3cccc4ccccc34)cc2CC(=O)N([C@@H](C)CO)C[C@H]1C	i	i	i	i
COc1ccc(S(=O)(=O)Nc2ccc3c(c2)CC(=O)N([C@@H](C)CO)C[C@@H](C)[C@H](CN(C)Cc2ccc(C(F)(F)F)cc2)O3)cc1	i	i	i	i
C=C(C(=O)O)C(CCCCCCO)C(=O)O (configuration not stated)	i	+	i	i
COc1ccc(-c2cc(=O)c3c(OC)c(OC)c(OC)c(OC)c3o2)cc1	i	.	i	i
C[C@H](CO)N1C[C@H](C)[C@@H](CN(C)C(=O)Nc2ccccc2)Oc2ccc(NC(=O)C3CC3)cc2C1=O	i	i	i	i
COc1ccc([Si](C)(C)[C@@H]2[C@@H](CC(=O)N(CCO)Cc3ccccc3)O[C@]3(C(=O)N(C)c4ccccc43)[C@H]2C)cc1	i	i	i	i

As a short view, some entries already given:
SMILES	p53 mut binder	ID4 SMM	Myc binder	STAT3 binder
C=C(C(=O)O)C(CCCCCCO)C(=O)O (configuration not stated)	i	+	i	i
COc1ccc(-c2cc(=O)c3c(OC)c(OC)c(OC)c(OC)c3o2)cc1	i	.	i	i
C[C@H](CO)N1C[C@H](C)[C@@H](CN(C)C(=O)Nc2ccccc2)Oc2ccc(NC(=O)C3CC3)cc2C1=O	i	i	i	i
COc1ccc([Si](C)(C)[C@@H]2[C@@H](CC(=O)N(CCO)Cc3ccccc3)O[C@]3(C(=O)N(C)c4ccccc43)[C@H]2C)cc1	i	i	i	i

Remaining list, next part.
SMILES	p53 mut binder	ID4 SMM	Myc binder	STAT3 binder
CNC[C@@H]1Oc2ccc(NS(C)(=O)=O)cc2C(=O)N([C@@H](C)CO)C[C@H]1C	i	+	i	i
CC(C)(C)C(=O)CSc1nnc(-c2ccco2)o1	i	i	i	i
C[C@@H]1CN([C@H](C)CO)C(=O)c2cc(NC(=O)CCCN(C)C)ccc2O[C@@H]1CN(C)S(=O)(=O)c1ccc(Cl)cc1	i	.	i	i
Cc1noc(C)c1NC(=O)Nc1ccc2c(c1)C(=O)N([C@H](C)CO)C[C@@H](C)[C@H](CN(C)C(=O)NC1CCCCC1)O2	i	i	i	i
C[C@H]1CN([C@@H](C)CO)C(=O)Cc2cc(NS(=O)(=O)c3ccc(Cl)cc3)ccc2O[C@@H]1CN(C)C(=O)NC1CCCCC1	i	i	i	i
CO[C@H]1O[C@H](CO)[C@@H](OC(=O)Nc2ccccc2)[C@H](OC(=O)Nc2ccccc2-c2ccccc2)[C@@H]1OC(=O)Nc1ccccc1-c1ccccc1	i	.	i	i
COc1ccc([Si](C)(C)[C@@H]2[C@@H](CCO)O[C@]3(C(=O)N4c5c(cc(OC)cc53)C(C)=CC4(C)C)[C@H]2C)cc1	i	i	i	i
Cc1sc(NC(=S)NC(=O)Cc2cccc3ccccc23)c(C(N)=O)c1C	i	i	i	i
O=C(Nc1ccc(S(=O)(=O)Nc2ncccn2)cc1)C1CCC1	i	i	i	i
CNC(=O)C1OC(n2cnc3c(NCc4cccc(I)c4)ncnc32)C(O)C1O (configuration not stated)	i	.	i	i

SMILES	p53 mut binder	ID4 SMM	Myc binder	STAT3 binder
CN(Cc1ccccc1)CC(O)CC(O)c1ccccc1 (configuration not stated)	i	i	i	i
C[C@@H]1CN([C@@H](C)CO)C(=O)c2cccc(NS(=O)(=O)c3cccs3)c2O[C@@H]1CN(C)Cc1ccc(C(=O)O)cc1	i	i	i	i
OC[C@@]1(O)CO[C@H](OC[C@H]2O[C@@H](OC(CCCCc3ccc(O)cc3)CCc3ccc(O)cc3)[C@H](O[C@H]3OC[C@](O)(CO)[C@H]3O)[C@@H](O)[C@@H]2O)[C@@H]1O (some centres not stated)	i	i	i	i
COc1ccc(CN(C)C[C@H]2OCCCC[C@H](C)Oc3ccc(NC(=O)Nc4c(C)noc4C)cc3C(=O)N([C@H](C)CO)C[C@@H]2C)cc1	i	i	+	i
C[C@@H]1CCCCO[C@H](CN(C)C(=O)Nc2ccccc2)[C@@H](C)CN([C@H](C)CO)C(=O)c2cc(N(C)C)ccc2O1	i	i	i	i
C[C@H]1CN([C@@H](C)CO)C(=O)c2cccc(NC(=O)Nc3ccc(C(F)(F)F)cc3)c2O[C@H]1CN(C)Cc1ccncc1	i	i	i	i
COc1ccccc1CNc1nc2nc(C)cc(=O)n2[nH]1	i	i	i	i
C[C@@H]1CN([C@@H](C)CO)C(=O)c2cccc(NC(=O)c3ccc(-c4nccs4)cc3)c2O[C@H]1CN(C)Cc1ccc(C(=O)O)cc1	i	i	i	i
CCn1cc(CN(C)C(=S)Nc2cccc(C(C)=O)c2)c(C)n1	i	i	i	i
C[C@@H]1CN([C@@H](C)CO)C(=O)c2cc(NC(=O)c3ccncc3)ccc2O[C@@H](C)CCCCO[C@@H]1CN(C)C(=O)Nc1cccc2ccccc12	+	i	i	+
O=C1c2ccccc2CCC1CNCCc1ccc(O)cc1 (configuration not stated)	i	.	i	i
O=C(NCCOc1ccccc1Cl)c1ncn[nH]1	i	i	i	i

Screening data (PubChem)
